# Mtb growth = Mycobacterium tuberculosis H37Rv growth inhibition, cell based, confirmatory dose response (AID 1949) | most inactive calls were filed without a number and no value below 0 was filed | inhibition, % at 10 µg/mL, or IC50 in µg/mL where a hit was titrated | 100,000 tested, 1.6% active;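 active = confirmed in a dose series; inconclusive = about 50% or more but not retested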;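 note: bacteria grown 7 days with compound before Alamar blue readout; 0% = untreated bacteria and 100% = reference antibiotic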
# * hit, by the source's call; i = inactive; ? = inconclusive. Only part of the results is shown; the hit share may differ from the screen's.
canonical_smiles | Mtb growth
Cc1ccccc1-n1c(-c2cccnc2)n[nH]c1=S | i
O=C(O)C1C2C=CC(C2)C1C(=O)Nc1ccc(F)cc1 (stereo not given) | 10.9%
COc1ccc(C(=O)NC(=S)Nc2ccccc2C(=O)O)cc1Br | 4.5%
COc1ccc(-c2oc3ncn4nc(-c5ccco5)nc4c3c2-c2ccc(OC)cc2)cc1 | i
Cc1noc(C)c1C(=O)N1CCN(c2ccccn2)CC1 | i
FC(F)(F)c1cccc(NC(=S)N2CCN(c3ccccn3)CC2)c1 | i
CCOC(=O)C1CCN(C(=O)Nc2ccc3nc(-c4ccco4)c(-c4ccco4)nc3c2)CC1 | 9.0%
COc1cc(C(=O)Nc2ccc(F)cc2F)cc(OC)c1OC | i
Cc1cc(NC(=O)CS(=O)(=O)Cc2ccccc2)no1 | i
COC(=O)C1CCN(S(=O)(=O)c2ccc(Br)cc2)CC1 | i
CCCCOc1ccc(S(=O)(=O)N2CCN(c3cccc(C)c3C)CC2)cc1 | i
CC1(C)CC(=O)c2sc(NS(=O)(=O)Cc3ccccc3)nc2C1 | 13.2%
NC(=O)C1CCN(C(=O)COc2ccc(Cl)cc2Br)CC1 | 2.7%
O=C(NCc1cccnc1)c1cccc(NC(=O)c2ccco2)c1 | i
Cc1ccc(S(=O)(=O)CCC(=O)N(C)C)cc1 | i
CC(O)C(Nc1ncnc2ccccc12)C(=O)O (stereo not given) | i
O=C(c1ccccc1)c1ccc2[nH]c(=O)c(=O)[nH]c2c1 | i
COc1ccc(S(=O)(=O)N(CC(=O)Nc2cccc([N+](=O)[O-])c2)c2ccc(C)cc2)cc1 | i
CCc1ccc(OCC(=O)Nc2ccc(S(=O)(=O)Nc3nccs3)cc2)c(Br)c1 | i
OCCNCCNCc1ccc(-c2ccccc2)cc1 | i

# The closing 2 compounds of the section before come first, to join the parts:
canonical_smiles | Mtb growth
CCc1ccc(OCC(=O)Nc2ccc(S(=O)(=O)Nc3nccs3)cc2)c(Br)c1 | i
OCCNCCNCc1ccc(-c2ccccc2)cc1 | i
CCCc1sc(NC(=O)COc2ccccc2)c(C(=O)OCC)c1C | 2.5%
O=C(Oc1ccc(F)cc1)c1ccc(Cl)c(Cl)c1 | 27.2%
Cc1cc(Cl)ccc1OCCCC(=O)NCCC1=CCCCC1 | i
COc1cc(C(=S)N2CCOCC2)cc(OC)c1OC(=O)c1ccc(F)cc1 | 1.8%
O=C1CC(N2CCN(c3ccc(O)cc3)CC2)C(=O)N1Cc1ccc(F)cc1 (stereo not given) | i
Cc1ccc(C2Nc3ccccc3NC3=C2C(=O)CC(c2ccccc2Cl)C3)s1 (stereo not given) | i
Cc1ccc(S(=O)(=O)N(Cc2ccccc2)c2ccccc2C(=O)NCc2cccnc2)cc1 | 0.3%
COc1cc(OC)c(C(=O)Nc2cc(C(F)(F)F)ccc2Cl)cc1OC | i
Cc1ccccc1-c1nc(SCC(=O)Nc2ccccc2)n[nH]1 | i
CS(=O)(=O)N(CC(=O)Nc1cccc([N+](=O)[O-])c1)c1cccc2ccccc12 | i
O=C(COC(=O)c1ccc(F)cc1)c1ccc(Br)cc1 | i
COc1ccc(Cl)cc1S(=O)(=O)NCCN1CCOCC1 | 0.1%
Cc1ccccc1C(=O)Nc1cccc(OC(C)C(=O)c2ccccc2)c1 (stereo not given) | i
COC(=O)c1c(N2C(=O)CC(Sc3ncccc3C(=O)O)C2=O)sc(C)c1C (stereo not given) | i
O=C(Nc1cc2nn(-c3ccccc3)nc2cc1Cl)c1ccccc1I | i
S=C(NCc1ccco1)Nc1ccc(Cl)cn1 | 39.4%
CCCOc1ccc(S(=O)(=O)NCc2cccnc2)cc1 | 12.1%
CCOC(=O)c1ccc(NC(=S)Nc2cc(OC)c(Cl)cc2OC)cc1 | 42.9%
CCOc1cc([N+](=O)[O-])ccc1N1C(=O)CC(N2CCN(Cc3ccccc3)CC2)C1=O (stereo not given) | i
CC(C)C(NC(=O)NC12CC3CC(CC(C3)C1)C2)C(=O)O (stereo not given) | i
CCOC(=O)c1c(NC(=O)CCSc2ccccc2)sc2c1CCCC2 | i
COc1ccccc1C1C(C#N)=C(N)Sc2c1c(=O)oc1ccccc21 (stereo not given) | i
COc1cccc(N(CC(=O)Nc2cc(Cl)ccc2Cl)S(=O)(=O)c2ccccc2)c1 | i
C=CCn1c(NCc2ccc(C)cc2)nc2c1c(=O)[nH]c(=O)n2C | 0.8%
COc1cc(OC)c(NC(=O)Cc2ccccc2OC)cc1Cl | 3.0%
CCOC(=O)c1c(C)n(C)c2c1cc(OC)c1ccccc12 | i
O=C(Cc1ccccc1[N+](=O)[O-])Nc1nnc(C2CCCCC2)s1 | i
O=C(CCc1ccccc1)Nc1nnc(SCc2cccc(Cl)c2)s1 | i
CCOC(=O)C1CCN(C(=S)Nc2cc(OC)ccc2OC)CC1 | i
Cc1c(Cl)cccc1N(CC(=O)N1CCC(Cc2ccccc2)CC1)S(C)(=O)=O | i
Cc1csc(NC(=O)CSc2ncn(-c3ccccc3)n2)n1 | i
CCc1c(C)c2ccc(OCc3cccc(OC)c3)cc2oc1=O | 18.5%
COc1ccccc1Nc1nc(N)nc(CN2CCCCCC2)n1 | i
COC(=O)C(Cc1ccc(O)cc1)NC(=O)C(C)(C)C (stereo not given) | i
COc1ccccc1NC(=O)CSCc1ccccc1Br | i
COC(=O)c1c(NC(=S)N2CCN(c3ccc([N+](=O)[O-])cc3)CC2)sc(C)c1C | i
CCOC(=O)C1=C(N)OC2=C(C(=O)CC(C)(C)C2)C1c1ccc(C)cc1C (stereo not given) | i
CC(=O)Oc1ccccc1-c1ccccc1 | i
Cc1ccc(N2CCN(C(=O)c3ccc(Cl)cc3)CC2)c(C)c1 | 49.0%
COc1c(C)cc(Br)cc1C(=O)Nc1ccc2oc(=O)ccc2c1 | i
CC1CCC(C(C)C)C(OCC(O)CN2CCN(C)CC2)C1 (stereo not given) | i
O=C(NC1CCC(C(=O)O)CC1)c1ccccc1 (stereo not given) | i
Cc1ccc(SCc2[nH]nc3c2C(c2ccnc4ccccc24)C(C#N)=C(N)O3)cc1 (stereo not given) | i
CCN(c1ccccc1)S(=O)(=O)c1ccc(NC(=O)Nc2ccc(Cl)cc2)cc1 | 5.77µg/mL*
Cc1cc(C)nc(N/C(=N\C(=S)Nc2ccccc2)Nc2ccc(C)c(Cl)c2)n1 | i
COc1cc(C=O)cc(Cl)c1OCc1cccc(F)c1 | i
CCCCC(=O)Nc1ccc(NC(=S)NC(=O)c2ccc(C)cc2C)cc1OC | 0.7%
COC(=O)c1ccc(C(=O)OC)c(NC(=O)C2CCCO2)c1 (stereo not given) | i
CC(C)c1ccccc1OCCNC(=O)c1cncc(Br)c1 | 1.7%
CC(=O)Oc1cc2c3c(c(=O)oc2cc1C)CCCC3 | i
O=C(CC1(O)C(=O)N(Cc2ccccc2)c2ccc(Br)cc21)c1ccco1 (stereo not given) | 1.8%
COCCCNC(=S)NNC(=O)C1CC1c1ccc(C(C)(C)C)cc1 (stereo not given) | i
CC(C)Oc1ccc(C(=O)NC(=S)N2CCOCC2)cc1 | i
Cc1ccc(S(=O)(=O)N(CC(=O)NC2CC2)Cc2ccccc2F)cc1 | i
COc1ccc(OCC(=O)NNC(=O)Nc2cccc(Cl)c2)cc1 | i
CSCCC(C(=O)N1CCCCC1)N1C(=O)c2cc(Cl)c(Cl)cc2C1=O (stereo not given) | i
COc1ccc(-c2nc3cc(NC(=O)c4ccc(OC)c(OC)c4)ccc3o2)cc1 | 29.5%
COc1ccc(Nc2nc(N3CCOCC3)nc(N3CCOCC3)n2)cc1Cl | i
CCC(=O)Nc1ccc(Oc2ccc(NC(=O)CC)c(NC(=O)CC)c2)cc1 | 3.6%
O=C(Nc1ccccc1N1CCN(C(=O)c2ccccc2)CC1)c1cc(I)ccc1Cl | 3.9%

# Ordered by molecular weight (low to high): some entries from above
canonical_smiles | Mtb growth
COc1cc(C=O)cc(Cl)c1OCc1cccc(F)c1 | i
CC(C)c1ccccc1OCCNC(=O)c1cncc(Br)c1 | 1.7%
Cc1ccc(S(=O)(=O)N(CC(=O)NC2CC2)Cc2ccccc2F)cc1 | i
COc1ccc(-c2nc3cc(NC(=O)c4ccc(OC)c(OC)c4)ccc3o2)cc1 | 29.5%
COc1ccc(Nc2nc(N3CCOCC3)nc(N3CCOCC3)n2)cc1Cl | i
CSCCC(C(=O)N1CCCCC1)N1C(=O)c2cc(Cl)c(Cl)cc2C1=O (stereo not given) | i
O=C(CC1(O)C(=O)N(Cc2ccccc2)c2ccc(Br)cc21)c1ccco1 (stereo not given) | 1.8%

# Going on with the list.
mol,Mtb growth
CC(C)NC(=O)c1ccccc1NC(=O)CN(c1ccccc1Br)S(C)(=O)=O,i
Cc1ccc(S(=O)(=O)NCc2ccccc2Cl)cc1C(N)=O,i
CCC1CCCCN1C(=O)NC(=O)c1ccccc1 (stereo not given),i
COc1ccc(N2C(=O)c3cccc4c(N5CCOCC5)c([N+](=O)[O-])cc(c34)C2=O)cc1,i
COC(=O)C1=CN(c2ccc(OC)cc2)C=C(C(=O)OC)C1c1cccc(Br)c1,i
CC(=O)Nc1ccc(OC(=O)c2cccs2)cc1,i
O=C(CSc1nnc(SCC(=O)NCC(=O)c2ccccc2)s1)NCC(=O)c1ccccc1,?
COc1ccccc1NS(=O)(=O)c1cccc2ccccc12,2.5%
Cc1cc(SCC(=O)Nc2sc3c(c2C#N)CCCC3)nc2ccccc12,i
CC1(C)Cc2nc3sc4c(c3cc2CO1)N=CN1CCCN=C41,i
O=C(CCc1ccc(S(=O)(=O)NCc2ccccc2)cc1)NCc1ccccc1Cl,0.5%
COC(=O)C1CCN(C2CC(=O)N(c3cc(C)ccc3C)C2=O)CC1 (stereo not given),i
CCS(=O)(=O)c1nc2ccccc2n1CCOc1ccc(OC)cc1,i
Cc1c(Cl)cccc1NC(=O)CNS(=O)(=O)c1ccccc1,i
Cn1c(SCC(=O)Nc2ccc(Cl)cc2)nnc1-c1ccco1,2.5%
CC(C(=O)Nc1ccc(CN2CCCCC2)cc1)(c1ccccc1)c1ccccc1,i
Brc1cccc(OCCCCN2CCCCCC2)c1,1.7%
COc1cccc(C(=O)COc2cc3oc(=O)cc(C)c3cc2Cl)c1,i
CCc1ccc2nc(-c3ccccc3)cc(C(=O)Nc3ccccc3OC)c2c1,1.5%
Cc1cc(F)ccc1S(=O)(=O)Nc1cc2c(C(=O)O)c(C)oc2c2ccccc12,i
CCSc1nnc(-c2cccnc2)n1Cc1ccccc1,i
Cc1ccc(S(=O)(=O)N(C)CC(=O)O/N=C(\N)c2ccc(Cl)cc2)cc1,i
c1coc(-c2nc3c4c5c(sc4ncn3n2)CCCC5)c1,2.8%
COc1cc(OC)c(OC)cc1/C=C1/C(=O)NC(=O)N(c2ccccc2F)C1=O,i
CCOc1ccc(C2C(C(=O)OC)=CN(CCc3ccccc3)C=C2C(=O)OC)cc1,i

# Retrieved by structure from the list above (2):
mol,Mtb growth
Cc1cc(SCC(=O)Nc2sc3c(c2C#N)CCCC3)nc2ccccc12,i
CCOC(=O)c1c(NC(=O)CCSc2ccccc2)sc2c1CCCC2,i

# Other structures:
mol,Mtb growth
Cc1nnc(SCCc2ccccc2)[nH]c1=O,i
O=S(=O)(NCCSC1CCCCC1)c1ccc(Cl)cc1,i
COc1ccc(N2CCN(C(=O)c3ccc(N(C)S(C)(=O)=O)cc3)CC2)cc1,i
O=S(=O)(c1ccc(Cl)cc1)N1CCN(Cc2c[nH]c3ccccc23)CC1,i
Cc1ccc(NC(=O)C2C3C=CC(O3)C2C(=O)O)cc1[N+](=O)[O-] (stereo not given),i
O=C(OCc1ccc([N+](=O)[O-])cc1)C1CCN(S(=O)(=O)c2cccc3cccnc23)CC1,i
CC(C)Cc1nnc(NC(=O)C2CCCCC2)s1,i
CSc1ccccc1NC(=O)CN(c1cc(C)cc(C)c1)S(C)(=O)=O,i
CC(C)(C)C(=O)Nc1ccccc1NC(=O)C(C)(C)C,i
CS(=O)(=O)N(CC(=O)Nc1ccc(C23CC4CC(CC(C4)C2)C3)cc1)c1ccccc1F,i
O=C(c1ccccc1F)N1CCN(c2ccc([N+](=O)[O-])c(-n3nc(-c4ccccc4)c4ccccc4c3=O)c2)CC1,i
COc1ccc(CCCC(=O)Nc2ccccc2F)c(C)c1,i
CCOC(=O)c1c(NC(=O)CSc2n[nH]c(-c3ccccc3)n2)sc2c1CCCC2,5.5%
CCCn1c(SCC(=O)Nc2ccc(F)cc2)nnc1-c1ccncc1,i
COc1ccc(OC)c(S(=O)(=O)Nc2cc3c(C(C)=O)c(C)oc3c3ccccc23)c1,i
Cc1cc(C)c(OCCNCc2ccccc2)c(C)c1,i
Cc1cc(S(=O)(=O)N2CCOCC2)ccc1NC(=O)c1ccccc1I,i
CCCCc1cc(=O)oc2c(CN3CCCC3)c(O)c(Cl)cc12,i
Fc1ccc(-n2nnnc2SCc2ccc(Cl)cc2)cc1Cl,i
C=CCS(=O)(=O)Nc1cccc2ccccc12,1.7%
O=C(CCNc1ccc(Cc2ccncc2)cc1)c1cccs1,5.83µg/mL*
CC1=C(C(=O)Nc2ccccc2C)C(c2c(Cl)cccc2Cl)NC(=O)N1 (stereo not given),2.9%
CC(C)c1ccc(C(=O)Nc2ccc(S(=O)(=O)Nc3nccs3)cc2)cc1,i
O=C(Nc1cccc(C(=O)N2CCOCC2)c1)c1cc(C(F)(F)F)cc(C(F)(F)F)c1,i
O=C(Nc1cccc(C(F)(F)F)c1)c1cccc(NC(=O)c2ccco2)c1,i
NC(=O)C(=O)Nc1cc(Cl)ccc1Cl,i
CCOC(=O)c1ccc(NC(=O)CN(c2ccccc2)S(=O)(=O)c2ccc(OC)c(OC)c2)cc1,i
COc1cc(NC(=O)CC2NC3CCCCC3NC2=O)cc(OC)c1 (stereo not given),0.5%
CSc1cccc(NC(=O)c2ccccc2)c1,i
CC1(C)Oc2ccc3ccc(=O)oc3c2-c2c1[nH]c1ccccc21,12.0%
Cc1ccc(-c2ccc(S(=O)(=O)N3CCN(C(=O)c4ccco4)CC3)cc2)cc1,i
Cc1csc2nc(-c3ccccc3)cn12,i
